Bioassay records from PubChem BioAssay.
Cruzain Triton: qHTS Assay for Promiscuous and Specific Inhibitors of Cruzain (with detergent); Cruzipain (Trypanosoma cruzi), P25779; purified cruzain, Z-FR-AMC fluorescence, 0.01% Triton; Potency, µM, for inactives: max response, negative = inhibition, hits mostly inhibitors; actives 0.43% (n = 200,000);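 also: plate controls were neutral wells for no effect and buffer without enzyme for full effect; nearly all actives have a fitted effect of over 40% in size; top concentration of the series not given in the record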
Target sequence (P25779 123-467 limits assumed): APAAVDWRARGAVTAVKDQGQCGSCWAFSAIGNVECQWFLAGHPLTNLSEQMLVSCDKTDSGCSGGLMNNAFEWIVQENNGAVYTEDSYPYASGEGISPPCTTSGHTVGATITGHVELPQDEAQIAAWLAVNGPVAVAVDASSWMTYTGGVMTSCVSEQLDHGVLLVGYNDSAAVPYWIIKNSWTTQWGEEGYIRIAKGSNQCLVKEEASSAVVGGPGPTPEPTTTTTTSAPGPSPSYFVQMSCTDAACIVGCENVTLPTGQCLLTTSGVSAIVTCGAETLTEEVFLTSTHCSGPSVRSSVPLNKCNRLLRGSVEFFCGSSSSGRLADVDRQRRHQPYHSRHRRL
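15 min RT preincubation of 1.5 nM cruzain with compound, then 2 uM Z-FR-AMC added; kinetic AMC fluorescence, 60 s delta. Triton X-100 0.01%, pH 5.5.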
Cruzain noTriton: qHTS Assay for Promiscuous and Specific Inhibitors of Cruzain (without detergent) | Cruzipain (Trypanosoma cruzi), P25779 | purified cruzain, Z-FR-AMC fluorescence, no detergent | Potency, µM, inactives show max response, negative = inhibition, hits mostly inhibitors | actives 2.3% (n = 200,000) | AID 1476, 2009;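 also: plate controls were enzyme without inhibitor for no effect and buffer without enzyme for full effect; nearly all actives have a fitted effect of over 40% in size; top concentration of the series not given in the record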
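Detergent-free condition (0.00005% Triton X-100) in acetate buffer pH 5.5 with DTT. 1.5 nM enzyme and compound were pre-mixed 15 min, then 2 uM Z-FR-AMC substrate added; reaction progress from fluorescence change between first and third reads (60 s).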
NS1 function inh: qHTS Assay for Inhibitors of Influenza NS1 Protein Function | S. cerevisiae slowed by influenza A NS1, growth recovery by OD600 | Potency, µM (series often up to 46.1 µM), inactives show at the highest dose activity, positive = more growth | actives 0.4% (n = 270,000) | AID 2326, 2010; active means well fitted rising curve with a large enough effect; inconclusive means small, poorly fitted or top-dose-only effect; inactive means no such curve, though single readings can be large or run the other way; also: nearly all actives have a fitted effect of over 50% in size
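S. cerevisiae expressing influenza A NS1, grown in glucose, washed, then diluted 1:100 into pH 6.0 -URA galactose medium with 23 nl compound. Growth recovery read as OD600; NS1-free strain serves as control.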
2A StopGo: High Throughput Screening for Foot and Mouth Disease Virus Antivirals. human cells with a luciferase reporter of 2A StopGo recoding; control for the full effect not named in the record. Potency, µM (top dose mostly 57.9 µM), for inactives: at the top dose signal change, negative = less light. actives 1.2% (n = 410,000); active = well fitted falling curve with a large enough effect; inconclusive = small, poorly fitted or top-dose-only effect; inactive = no such curve, though single readings can be large or run the other way; tested in HEK293T cells; also: % is scaled to controls: 0 for no effect and ±100 for the full control effect; nearly all actives have a fitted effect of over 45% in size; luciferase light after 4 h
RE007 growth inh: qHTS Assay for Inhibitors of the HIV-1 protein Vpr. actives 0.21% (n = 360,000). Potency, µM (series often up to 92.2 µM), for the others: top-dose activity change, negative = less growth. S. pombe RE007 Vpr strain, BacTiter-Glo ATP luminescence, 24 h; control for the full effect not named in the record; active = well fitted falling curve with a large enough effect; inconclusive = small, poorly fitted or top-dose-only effect; inactive = no such curve, though single readings can be large or run the other way;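 also: % is scaled to controls: 0 for no effect and ±100 for the full control effect; nearly all actives have a fitted effect of over 50% in size; the assay follows cell death caused by Vpr and the record does not say whether a fall means rescue or toxicity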
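Fission yeast RE007 carrying one integrated HIV-1 vpr copy, seeded at OD 0.01 in PMG+AL medium with 23 nL pinned compound. Grown 24 h at 30 degrees; viability read by BacTiter-Glo luminescence after 5 min.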
LASV entry inh: qHTS for Inhibitors of binding or entry into cells for Lassa Virus; actives 1.2% (n = 300,000); AID 540256, 2011; Potency, µM (series often up to 37.9 µM), for the others: at the top dose activity change, negative = inhibition, most hits filed as inhibitors; Lassa virus pseudotype entry inhibition, cell reporter; control for the full effect not named in the record; active means well fitted inhibition curve with a large enough effect; inconclusive means small, poorly fitted or top-dose-only effect, or effect the other way; inactive means flat fitted curve, though single readings scatter; tested in HEK293 cells; also: % is scaled to controls: 0 for no effect and ±100 for the full control effect; nearly all actives have a fitted effect of over 50% in size; luciferase read-out
SARS PLpro yeast: qHTS of Yeast-based Assay for SARS-CoV PLP | AID 485353, 2010 | Potency, µM (titrated, usually from 32.9 µM), for inactives: at the top dose activity, positive = growth rescue | S. cerevisiae expressing SARS-CoV PLpro, growth rescue; control for the full effect not named in the record | actives 0.19% (n = 330,000); active means well fitted rising curve with a large enough effect; inconclusive means small, poorly fitted or top-dose-only effect; inactive means no such curve, though single readings can be large or run the other way; also: 0% is about no effect; nearly all actives have a fitted effect of over 55% in size; growth read by luminescence after 48 h
MARV entry inh: qHTS for inhibitors of binding or entry into cells for Marburg Virus | actives 1.8% (n = 300,000) | Marburg virus pseudotyped entry inhibition, cell reporter; control for the full effect not named in the record; about a third of the inactives were read at about 46 µM | Potency, µM (titrated, usually from 37.8 µM), for inactives: at the top dose activity change, negative = inhibition, most hits filed as inhibitors | AID 540276, 2011; active = well fitted inhibition curve with a large enough effect; inconclusive = small, poorly fitted or top-dose-only effect, or effect the other way; inactive = flat fitted curve, though single readings scatter; tested in HEK293 cells; about a fifth of its hits are not listed in these tables; also: % is scaled to controls: 0 for no effect and ±100 for the full control effect; luciferase read-out
Active calls of the source: *; u = inconclusive; x = not tested or not shown; & = joins results of further samples; [ ] = another dose, or the depositor's remark. Unless noted, calls follow the shape of the dose curve; as a rule, active = well fitted curve in the direction sought with a large enough effect; inconclusive = small, poorly fitted or top-dose-only effect, or another doubt; inactive = no such curve, though single readings can be large; an effect the other way counts as inactive or inconclusive. Potency is read from the fitted curve at half-maximal effect. Compounds were not picked by outcome; 4.5% or so of the library scored in one or more.

Every second line gives: Cruzain Triton | Cruzain noTriton | NS1 function inh | 2A StopGo | RE007 growth inh | LASV entry inh | SARS PLpro yeast | MARV entry inh
Cc1cccc(-c2nc(CN3CCCC(C(=O)NCc4ccc(Cl)cc4)C3)c(C)o2)c1 (configuration not stated)
 : 1.1% | 13% | x | u | x | -27%[46.1 µM] | x | 7%[46.1 µM]
CSc1nc(-c2ccc(Cl)cc2)nn1S(=O)(=O)c1ccc(Cl)cc1
 : -0.2% | u | 7% | 15% | -15% | -16% | 24% | u
COc1ccc2c(c1OC)C(=O)N1C2SC(C)(C)[C@H]1C(=O)NC1CC1 (some centres not stated)
 : x | x | -5% | -13% | 8% | x | 6% | x
Cc1cc(NC(=O)CSc2ncccc2C(=O)O)no1
 : x | x | 1% | -11% | -8% | -1% | 0% | 13%[46.1 µM]
Fc1cc(F)nc(NCc2ccccc2)n1
 : x | x | 3% | 36%[activator] | 14% | x | -2% | x
CC1CCCN(S(=O)(=O)c2ccc3c(c2)c(=O)nc2ccccn23)C1 (configuration not stated)
 : -5.4% | -4% | 9% | 18%&-13% | 5% | 0% | 1% | 1%&1%[46.1 µM]
O=C(CCNC(=O)c1ccccc1)Nc1ccc(S(=O)(=O)Nc2ncccn2)cc1
 : x | x | x | -5% | 6% | 16%[46.1 µM] | 1% | -2%[46.1 µM]
Cc1cccc(C)c1OC(=O)CSc1nnc(-c2ccc3c(c2)OCO3)o1
 : -2.6% | -6% | x | -31% | x | -3%[46.1 µM] | x | u
O=C(O)CC12CC3CC(C1)CC(n1cncn1)(C3)C2
 : x | x | x | -3% | 3% | -1% | 2% | 13%[46.1 µM]
O=C(O)CCC(=O)Nc1nc(-c2ccccc2)cs1
 : 1.7% | -10% | 2% | -15% | -7% | 6% | 0% | 0%
COCCCN(C(=O)c1ccco1)c1nc(-c2cc(OC)ccc2OC)cs1
 : -5.6% | u | u | u | 11% | -4% | 0% | -23%
CCCCc1nn2c(=O)cc(COC(=O)c3ccc(NC(=O)C4CCCCC4)cc3)nc2s1
 : 0.9% | -12% | x | u | x | 7%[46.1 µM] | x | x
CC(C)C(=O)Nc1cccc(C(=O)OCC(=O)c2ccc(Cl)cc2Cl)c1
 : -2.6% | -9% | 3% | 57%[activator] | -4% | 23% | -8% | -3%
O=C(Cn1c(=O)n(CC2CCCO2)c(=O)c2ccccc21)Nc1cccc(Cl)c1 (configuration not stated)
 : -3.1% | -5% | x | -17% | x | 12%[46.1 µM] | x | u
O=C(CSc1nc2c(c(=O)[nH]1)CN(Cc1ccc(F)cc1)CC2)Nc1cccc(C(F)(F)F)c1
 : -3.9% | 1% | x | -17% | x | 8%[46.1 µM] | x | x
O=C(Oc1cccc(-n2cnnn2)c1)c1ccccc1Cl
 : x | x | -3% | 2% | 18% | -4% | -1% | 8%[46.1 µM]
COC(=O)c1cc(=O)n(Cc2cccs2)c(=NCc2cccs2)s1
 : 5.3% | -9% | 5% | -14% | -9% | -21%[14.3 µM] | -2% | u
S=c1[nH]nc(-c2ccccc2)n1C1C=CCCC1 (configuration not stated)
 : 3.9% | 7% | -42% | 6% | 5% | 5% | 25% | 0%
C=CCOc1ccccc1C1NC(=O)NC(C)=C1C(=O)NCc1ccccc1 (configuration not stated)
 : 7.2% | 3% | -10% | 14% | -7% | -12% | -1% | 15%
COc1ccc(COc2cc(-c3cccc(OC)c3)nc3ccc(NC(C)=O)cc23)cc1
 : 1.1%&-5.9% | u | 2% | -10% | -19% | u | 1% | -36%
CC(C)CNC(=O)NC1C(NC(=O)NCC(C)C)N(C)C(=O)N1C (configuration not stated)
 : 3.3% | 2% | -5% | -14% | 0% | 7% | 3% | u
O=C(N/C(=C/c1ccc(Br)cc1)C(=O)N1CCCC1=O)c1ccco1
 : x | x | 1% | 0% | -13% | x | 0% | x
CCC(=O)N1CCN(c2cc3c(cc2F)c(=O)c(C(=O)O)cn3CC)CC1
 : x | x | 7% | 4% | -16% | -1% | x | 13%
Cc1ccc(C(=O)N/N=C\c2cccc(OC(=O)c3cccc(F)c3)c2)cn1
 : x | x | -2% | 12% | -14% | -6% | -1% | -19%[46.1 µM]
CNC(=O)CC1C(=O)N(Cc2ccccc2)C(=S)N1NC(=O)c1cccc(F)c1 (configuration not stated)
 : -1.9% | 9% | 13% | -14% | 0% | 2% | -1% | 18%
O=C(O)CC/C(=C\c1ccc2c(c1)OCO2)c1nc2ccccc2s1
 : x | x | -70% | -9% | -24% | -19% | -4% | 2%[46.1 µM]
CN1CCN(C(=O)CN(c2cccc(Cl)c2)S(=O)(=O)c2ccccc2)CC1
 : 2.7% | 2% | -6% | 10% | 9% | 25% | 3% | 0%
Cc1ccc(NC(=O)Cn2c(=O)n(Cc3ccc4c(c3)OCO4)c(=O)c3oc4ccccc4c32)cc1C
 : -0.1% | -4% | x | 1% | x | 25%[46.1 µM] | x | x
CCC(=O)Nc1ccccc1C(=O)NC1CCCCC1
 : 4.9% | -2% | 4% | -7% | -5% | -2% | 2% | 3%
COc1ccccc1OCc1nc(C#N)c(N2CCCC2)o1
 : x | x | -3% | -17% | -15% | -22% | 0% | 24%[46.1 µM]
CN(C(=O)CSc1nnc2n1CCCCC2)C1(C#N)CCCCC1
 : x | x | x | -3% | -10% | 21%[46.1 µM] | 1% | 6%[46.1 µM]
O=C(NNC(=O)C1CCCCC1)C(=O)NC1CCCCC1
 : -1.0% | 5% | -1% | x | 6% | 3% | 5% | 13%
O=C1CCN(C2CCN(Cc3nc(Cc4ccccc4F)no3)CC2)CCN1
 : x | x | 3% | -22% | 8% | 18%[46.1 µM] | 1% | 3%[46.1 µM]
CC1C(C(=O)Nc2ccccc2)CCCC1(C)C(=O)O (configuration not stated)
 : 6.8% | -5% | -6% | 16% | 2% | -5% | -5% | -16%
CCOC(=O)C1=C(O)/C(=C\c2cc(C)n(-c3ccc(F)cc3)c2C)N=C1C
 : x | x | x | -16% | 16% | -20% | 3% | -14%[46.1 µM]
COc1ccc(-c2ccc(-c3noc(C)n3)c(OC)n2)cc1
 : 4.7% | 21% | -29% | 42%[activator] | -5% | 17% | -5% | u
CCOc1ccc(N2CC(C(=O)N3CCCCC3)CC2=O)cc1 (configuration not stated)
 : x | x | 5% | 22% | -9% | 0% | -11% | 11%[46.1 µM]
O=C(Cc1ccccc1[N+](=O)[O-])NCc1ccc(Cl)cc1Cl
 : -5.8% | 1% | -16% | 19% | 30% | u | u | u
CCOC(=O)C(NC(=O)Nc1cccc(C)n1)(OCC(F)(F)F)C(F)(F)F (configuration not stated)
 : -8.7% | u | -39% | 1% | 14% | 3% | 1% | 6%
Oc1ccccc1CNc1cccc2cccnc12
 : x | x | 8% | 69%[activator] | -15% | u | -1% | u
CN(CC(=O)Nc1ccccc1Cl)C(=O)CSc1nnc(-c2ccco2)o1
 : x | x | x | -3% | 23% | 2% | -3% | -1%[46.1 µM]
CCN(CC)CCCNC(=O)Cn1nc([N+](=O)[O-])c(Cl)c1C
 : x | x | 0% | 18% | 1% | x | 1% | x
COc1ccc(OC)c(NC(=O)Cn2cccc2)c1
 : 2.7% | -6% | 5% | 21% | -8% | 5% | -1% | 21%
CCCCN(C)C(=O)Cn1c(SCC(=O)Nc2ccc(C)c(C)c2)nc2ccccc21
 : 0.2% | u | x | -4% | x | u | x | x
O=C(CSc1nccc(=O)[nH]1)Nc1cccc2ccccc12
 : x | x | 0% | 0% | -13% | 0% | 0% | -1%[46.1 µM]
CSCCC(NS(=O)(=O)c1ccc2c(c1)oc(=O)n2C)C(=O)NCc1ccc(C)cc1 (configuration not stated)
 : x | x | 4% | -24% | 7% | x | 2% | x
CCCCn1c(SCC(=O)NNC(=O)c2ccco2)nnc1-c1ccco1
 : x | x | 3% | 0% | 4% | -6% | -5% | 0%[46.1 µM]
CCOC(=O)CN=C(NS(=O)(=O)c1ccc(Cl)cc1)c1ccccc1
 : x | x | -1% | 21% | -29% | -1% | -1% | 23%[46.1 µM]
CCCOc1cccc(C2C(C(=O)c3cccs3)=C(O)C(=O)N2CCN2CCOCC2)c1 (configuration not stated)
 : x | x | 3% | 54%[activator] | 7% | x | 1% | x
CC(=O)NC1=NC(=O)/C(=C/c2cc(C)n(-c3ccc(NC(C)=O)cc3)c2C)S1
 : x | x | x | 2% | -19% | -14%[46.1 µM] | -2% | 2%[46.1 µM]
Cc1ccc(C(C)NC(=O)c2cccs2)cc1 (configuration not stated)
 : x | x | x | -1% | 20% | 3%[46.1 µM] | x | u
O=C(Nc1ccccc1)Nc1ccc(C(=O)N2CCCC2)cc1
 : x | x | -3% | -40% | -57% | u | -4% | u
CNC(=S)Nc1cccc([N+](=O)[O-])c1
 : x | x | x | -8% | 7% | 6% | 0% | -2%[46.1 µM]

Some entries already given, reduced to NS1 function inh and MARV entry inh:
| Structure | NS1 function inh | MARV entry inh |
| --- | --- | --- |
| Cc1ccc(C(C)NC(=O)c2cccs2)cc1 (configuration not stated) | x | u |
| CCCCn1c(SCC(=O)NNC(=O)c2ccco2)nnc1-c1ccco1 | 3% | 0%[46.1 µM] |
| O=C(Nc1ccccc1)Nc1ccc(C(=O)N2CCCC2)cc1 | -3% | u |
